# ALR inh: inhibitors of human ALR sulfhydryl oxidase, primary screen, biochemical, H2O2 detection, HRP-luminol luminescence, single point; purified ALR, DTT oxidation; inhibition, % (concentration not given with the values); AID 485317, 2010; FAD-linked sulfhydryl oxidase ALR (Homo sapiens), P55789; 3.8% of 290,000 active;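 active = mean and each replicate at 75% or more; inconclusive = only one of the two met; inactive = neither met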;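 note: stock transfer was 7.5 nL into about 7.5 µL; 0% = neutral wells and 100% = wells with inactivated enzyme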
# Target sequence (P55789 whole entry, looked up): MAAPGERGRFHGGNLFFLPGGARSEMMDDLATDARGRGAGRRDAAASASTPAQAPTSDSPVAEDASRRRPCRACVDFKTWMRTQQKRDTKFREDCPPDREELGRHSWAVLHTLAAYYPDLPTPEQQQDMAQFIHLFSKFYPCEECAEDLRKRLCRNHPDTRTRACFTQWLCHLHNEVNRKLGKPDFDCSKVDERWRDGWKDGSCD
# LANA-H2B inh: blockers of LANA interaction with H2A/H2B – biochemical, FP readout, HTS, primary screen. Protein LANA1 (Human herpesvirus 8 type P (isolate GK18)), Q9QR71. cell-free LANA-H2A/H2B peptide, fluorescence polarization. inhibition, % (concentration not given with the values). 0.6% of 320,000 active. AID 2629, 2010; in the data active = inhibition mostly above about 10%, no sharp cut-off; inactive = mostly below about 6.7%;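 note: stock transfer was 7.5 nL into about 10 µL; 0% = median of vehicle wells and 100% = median of positive control wells; one replicate is shown; the record names a cut of 25% in any replicate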
# Ecoli rRNA inh: reduced GFP signal of wild-type E. coli, primary screen, bacterial rRNA inhibitor project, GFP/RFP fluorescence, OD600, single point | E. coli WT GFP vs humanized-ribosome RFP mutants, 24 h; active compounds read low; DMSO median 0, no signal -100 | 1.6% of 350,000 active | GFP signal change (wild-type ribosome), % (concentration not given with the values);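 active = significant combined selectivity score with lowered wild-type GFP, culture density cut under 30%, mutant RFP and density less affected; inactive = any of these conditions unmet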; note: one replicate is shown; some compounds called inactive have numbers as strong as hits
# Bfl-1 A1 inh: caspase 3/7 activation in MEF A1-2A-BIM cells, primary screen, A1 inhibitor project, cell-based, luminescence, HTS | Caspase-Glo 3/7 luminescence, 3 h; percent of clofoctol response, vehicle zero | caspase activation, % (concentration not given with the values) | 0.066% of 330,000 active | AID 2462, 2010;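 active = over half of replicate activation scores above 10%, or exactly half above 10 with the replicate mean above 10; inconclusive = replicate mean below 10 yet half the replicates above 10; inactive = over half of replicates below 10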;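 note: wells of about 30 µL received 50 nL stock; many hits fall short of the cut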
# Beta cell apopt: inhibitors of cytokine-induced beta cell apoptosis, primary screen, luminescence; INS-1E cytokine-induced death, ATP luminescence, 48 h; percent of positive-control rescue, neutral wells zero; protection from apoptosis, % (concentration not given with the values); 0.8% of 300,000 active;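 active = all replicates at 75% or more, or half of them and the mean; inconclusive = half reach 75% but not the mean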;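 note: 0% = cytokine-treated negative control wells and 100% = positive control rescue; higher means more ATP so stronger rescue from cytokine killing; wells of about 40 µL received 100 nL stock; the first replicate is given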
# Beta2AR agonist: beta2AR agonists driving receptor internalization, primary screen, cell-based, FAP fluorogen, flow cytometry; response, % (concentration not given with the values); 0.43% of 340,000 active; Am2.2-beta2AR cells; reference of the scale not given here;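 active = response above a set limit, near 3 SD of response in nonfluorescent compounds, cut at about 42% in these data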;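 note: stock transfer was 100 nL into about 11 µL; a reference agonist was the positive control; negative values mostly stem from fluorescent compounds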
# Target sequence (P07550 whole entry, looked up): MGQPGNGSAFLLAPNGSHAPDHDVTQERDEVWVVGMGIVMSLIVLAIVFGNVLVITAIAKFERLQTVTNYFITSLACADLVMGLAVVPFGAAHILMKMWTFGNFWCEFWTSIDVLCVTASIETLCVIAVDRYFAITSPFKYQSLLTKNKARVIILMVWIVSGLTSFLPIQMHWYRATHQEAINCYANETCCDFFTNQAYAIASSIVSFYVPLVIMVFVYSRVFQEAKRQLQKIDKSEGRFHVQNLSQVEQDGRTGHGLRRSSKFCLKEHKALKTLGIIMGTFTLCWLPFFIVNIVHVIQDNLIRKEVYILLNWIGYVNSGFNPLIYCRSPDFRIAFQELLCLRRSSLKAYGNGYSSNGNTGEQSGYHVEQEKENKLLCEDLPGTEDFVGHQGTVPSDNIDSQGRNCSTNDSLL
# Calb FLC: C. albicans growth inhibition with fluconazole, primary screen, CaCi-2 strain, Alamar Blue fluorescence | C. albicans CaCi-2 (fluconazole-resistant clinical isolate) + fluconazole, 48 h | growth inhibition, % (test concentration not listed) | 0.57% of 300,000 active;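 active = most replicates above 75%; inconclusive = exactly half above 75%; inactive = most below 75%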;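 note: all wells also contain fluconazole at 8 µg/ml as a sub-toxic cotreatment; 0% = median of DMSO wells and 100% = median of geldanamycin control wells; wells of about 8 µL received 7.5 nL stock; the first replicate is given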
# T cruzi repl: inhibitors of intracellular T. cruzi growth, primary screen, luminescence, NIH3T3 host cells; T. cruzi beta-gal in NIH3T3, 90 h; inhibition, % (concentration not given with the values); 1.4% of 300,000 active; AID 1885, 2009;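 active = mean inhibition across valid replicates above about 55%, limit read from the data; inconclusive = mean below that limit but half or more replicates reach it; inactive = mean below it, under half of replicates reach it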;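 note: signal also drops with host cell toxicity which is not excluded here; 0% = plate median of DMSO wells and 100% = zero luminescence signal; higher percent means less beta-gal luminescence so fewer parasites; stock transfer was 50 nL into about 50 µL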
# Ecoli rRNA inh OD600: recorded beside Ecoli rRNA inh, whose call it bears; OD600 change, %; measured here: OD600 growth;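 optical density of the mix in the first replicate; 0 = DMSO median and -100 = no signal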
# Ecoli rRNA inh RFP: recorded beside Ecoli rRNA inh, whose call it bears; RFP signal change, %; measured here: RFP humanized mutant strains;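 first replicate; 0 = DMSO median and -100 = no signal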
# An asterisk follows results filed as active; ? = inconclusive; / = no result given. This is a subset (hit frequency here may not be typical).
SMILES,ALR inh,LANA-H2B inh,Ecoli rRNA inh,Ecoli rRNA inh OD600,Ecoli rRNA inh RFP,Bfl-1 A1 inh,Beta cell apopt,Beta2AR agonist,Calb FLC,T cruzi repl
CCOc1ccc(C(=O)COC(=O)c2nc3nccc(C)n3n2)cc1,-15.5,2.2,15.8,10.5,2.3,0.7,1.3,4.6,/,/
O=C(COC(=O)c1ccc2c(c1)C(=O)N(CCc1ccccc1)C2=O)Nc1ccc(OC(F)F)cc1,-1.8,-7.1,/,/,/,-2.5,-7.2,0.8,-12.3,-14.3
CCOC(=O)CN(C(=O)CSc1nnc(CNc2ccc(F)cc2)n1C)c1ccccc1,2.5,2.8,/,/,/,1.9,1.8,-5.4,-5.6,-4.4
S=C(NCCc1ccccc1)N1CCCC1,-14.5,-0.3,6.5,4.1,-1.7,-0.6,-7.7,-4.2,7.8,-17.9
CC(=O)c1ccc(NC(=O)C(C)Sc2nnc(C3CC3)n2C2CC2)cc1 (stereo unspecified),/,-2.4,3.0,6.6,0.1,-0.9,1.5,-1.4,/,/
O=C(NCCc1nc2ccccc2[nH]1)/C(=C/c1ccco1)NC(=O)c1ccc(Br)cc1,/,-5.9,-4.1,-12.7,7.3,0.6,9.3,-8.6,-5.0,2.3
CCOc1cccc(CNCCNC(=O)c2nonc2N)c1,-0.6,5.1,/,/,/,-1.4,-4.6,1.6,?,2.6
COC(=O)c1onc(-c2ccccc2)c1C(=O)OC,-10.9,-1.6,/,/,/,-0.6,-10.1,1.6,1.8,-5.1
Cc1sc2ncnc(SCC(=O)N3CCCCC3)c2c1C,2.9,-4.4,0.9,1.6,-1.0,-0.1,-0.4,-26.3,15.4,1.6
NSc1nc(N)c2nc(-c3ccccc3)c(-c3ccccc3)nc2n1,-1.9,-6.2,4.1,6.2,-1.2,1.1,-0.4,3.3,4.2,13.6
O=C(NCCCN1CCOCC1)c1cc(C(=O)C2CCCCC2)c[nH]1,/,/,7.7,1.2,1.4,1.1,-6.2,0.3,17.9,-14.3
Cc1ccc(NC(=O)/C(=C/c2cccc([N+](=O)[O-])c2)NC(=O)C2CCCCC2)cc1,-3.4,8.5,6.0,15.1,-0.6,-0.1,6.0,-2.2,-20.8,-27.3
COC(=O)c1ccc(C(=O)OC)c(NC(=O)Nc2ccc3c(c2)OCO3)c1,-2.7,-1.0,/,/,/,-0.9,8.9,-0.4,?,-2.2
CN1CCN(C(=O)C2CC(c3c(F)cccc3Cl)=NO2)CC1 (stereo unspecified),-2.4,0.8,/,/,/,0.1,/,-0.1,2.8,13.3
COc1ccc(/C=N/NC(=O)c2ccccc2OC)cc1COc1ccc(C)cc1,2.0,6.5,6.2,-0.2,-4.0,-0.4,-0.5,4.6,-9.3,2.0
O=C(CN1C(=O)NC(c2ccccc2)(c2ccccc2)C1=O)N1CCN(c2ccc(F)cc2)CC1,-0.8,-2.3,-41.1,-49.8,21.6,0.7,0.7,1.1,/,/
CC(C)[C@H](NS(=O)(=O)c1ccccc1)C(=O)OCn1nnc2ccccc2c1=O,11.7,5.2,/,/,/,0.5,1.0,1.0,-2.7,-4.3
O=C(Nc1ccc(S(=O)(=O)N2CCCCC2)cc1)C1CCN(C(=O)c2ccco2)CC1,-2.6,-0.4,-8.3,-6.6,-2.1,-0.7,-0.7,-3.6,-4.0,4.0
Cc1nc(N2CCN(C(=O)c3ccco3)CC2)c2oc3ccccc3c2n1,-27.4,-0.2,/,/,/,-0.1,7.2,9.9,-0.5,-11.0
CC(=O)c1sc(-c2ccc(F)cc2)cc1NS(=O)(=O)c1ccccc1,-11.9,-4.8,19.9,2.5,1.9,0.1,-9.2,-0.6,11.0,-31.2
CC(Oc1ccc(F)cc1)C(=O)Oc1ccc(N(C)S(=O)(=O)c2ccccc2)cc1 (stereo unspecified),-2.7,-3.3,5.8,7.4,0.3,-0.9,0.8,-2.1,1.1,-7.1
O=C(COC(=O)CCS(=O)(=O)c1ccccc1)Nc1cc(S(=O)(=O)N2CCCCC2)ccc1Cl,-12.4,8.4,8.3,4.5,17.8,0.0,-2.0,3.0,-2.0,2.4
Cc1ccn2cc(CNC(=O)c3cccs3)nc2c1,-32.3,0.5,7.8,14.5,-3.7,0.2,-6.7,-0.5,-8.4,3.3
O=C(CSc1nncc2ccccc12)N1CCOCC1,-2.8,1.7,/,/,/,-0.7,-5.4,-8.5,-6.4,-6.2
CCOc1ccc(N(CC(=O)Nc2ccc(C)cc2)S(=O)(=O)c2c(C)noc2C)cc1,-8.1,-0.1,1.7,-0.7,7.2,-0.5,/,-3.3,-6.8,3.5
# Going on with the list.
SMILES,ALR inh,LANA-H2B inh,Ecoli rRNA inh,Ecoli rRNA inh OD600,Ecoli rRNA inh RFP,Bfl-1 A1 inh,Beta cell apopt,Beta2AR agonist,Calb FLC,T cruzi repl
COc1ccc(-c2[nH]nc3c2C(c2ccccc2OC(=O)N2CCOCC2)C(C#N)=C(N)O3)cc1 (stereo unspecified),-12.6,9.2,/,/,/,0.1,-7.6,-5.2,-8.9,-9.6
Cc1cc(=O)oc2cc(OCC(=O)OCC(=O)NC(=O)NC(C)C)ccc12,/,2.6,10.8,5.2,1.5,-1.0,-8.2,8.8,3.3,/
CN(C)c1ccc(/C=C(/NC(=O)c2ccccc2)C(=O)N/N=C/c2ccc([N+](=O)[O-])c(O)c2)cc1,0.5,-7.6,/,/,/,-0.7,-7.9,-2.1,47.2,1.7
Cc1cc(C)cc(NC(=O)CSc2nnc(Cc3cccn3C)n2-c2ccc(F)cc2)c1,20.3,-1.0,-4.1,-11.6,6.6,0.9,-5.0,-4.3,-13.3,7.6
Cc1c(N(C)S(=O)(=O)c2cccc(C(=O)NCC3CCCO3)c2)c(=O)n(-c2ccccc2)n1C (stereo unspecified),0.3,1.3,-0.8,0.2,-2.4,-0.7,4.7,-7.5,15.7,1.0
O=C1Cc2cc(S(=O)(=O)N3CCNCC3)ccc2N1,-3.8,-5.3,6.4,11.6,4.2,0.3,-2.8,2.7,/,/
S=C1NCN(Cc2ccccc2)CN1,/,0.4,/,/,/,-0.5,-3.2,-1.2,-4.5,/
CC1=CC(C)(C)N(C(=O)Nc2ccccc2)c2ccccc21,11.2,-0.4,12.4,6.9,0.8,0.0,2.4,6.9,9.4,9.0
CCc1ccc(-n2cc(-c3ccc(F)cc3)[n+]3c2SCCC3)cc1,-7.5,-0.8,-59.8,-82.6,-23.1,-1.2,109.7*,1.4,32.7,56.3*
C=CCOC(=O)/C(=C\c1cccc2ccccc12)NC(=O)c1ccccc1,-16.1,-3.8,/,/,/,-0.1,-0.7,13.8,-3.2,13.0
CCCC(c1nnnn1Cc1ccc(F)cc1)N1CCN(C)CC1 (stereo unspecified),0.0,-0.3,13.9,9.6,1.6,0.5,-6.1,3.6,-4.2,2.0
Cc1nn2c(-c3ccncc3)nnc2c2ccccc12,-1.6,0.0,/,/,/,-1.4,/,-3.2,-27.7,/
COc1ccc2c(c1)N1CCN=C1N2C,/,-1.2,/,/,/,1.0,-1.9,3.6,-4.6,1.9
Cc1cc(NC(=O)CO/N=C/c2ccc3c(c2)OCO3)ccc1Br,-4.8,4.4,6.8,1.4,-4.1,0.3,-0.5,-6.9,-10.5,7.9
CC(C)[C@H](NC(=O)OCc1ccccc1)C(=O)OCC(=O)N1CCN(c2ccccc2)CC1,11.7,2.1,0.7,-3.8,-1.6,0.4,2.2,5.3,-3.5,13.7
N#Cc1ccccc1OCC(=O)NCC1(N2CCCCC2)CCCCC1,-5.5,-2.3,15.2,5.9,11.4,0.5,-0.3,-2.1,-12.7,4.6
CCc1nnc(SCc2cccc(F)c2)nc1CC,4.0,2.3,/,/,/,-0.6,-4.5,-11.3,-15.9,17.1
Cc1ccc(C(=O)Oc2cc(N)n(S(=O)(=O)c3ccc(F)cc3)n2)cc1,1.0,-3.2,4.6,7.5,-2.6,-0.6,-10.6,-0.3,-0.8,-4.9
O=C(O)CCCNC(=O)OCc1ccccc1,-13.3,0.5,/,/,/,0.0,-4.4,63.7*,-24.1,2.6
COc1ccc(CC(NC(C)=O)C(=O)NC2CCN(S(=O)(=O)c3ccc(NC(C)=O)cc3)CC2)c(OC)c1 (stereo unspecified),-1.9,4.7,/,/,/,-0.6,/,-13.9,-1.9,9.3
CCN(CCNC(=O)Nc1ccc(Cl)cc1)c1ccccc1,54.8,4.3,/,/,/,0.1,13.2,3.1,0.2,21.5
O=C(OCn1nnc2ccccc2c1=O)c1cc(-c2ccccc2)nc2ccccc12,/,/,1.7,0.9,1.8,0.4,-4.1,2.9,0.1,0.4
Cc1ccc(-n2c(SCC(=O)N/N=C/C=C/c3ccccc3[N+](=O)[O-])nc3ccccc3c2=O)cc1,-5.8,-4.7,/,/,/,2.2,7.4,-9.5,0.1,33.8
COc1ccc(OC)c(-c2nc3cc4ccccc4cc3nc2-c2ccccc2)c1,-5.0,-6.8,6.8,7.9,3.4,0.1,11.8,1.0,37.0,47.2
CCc1cccc(NC(=O)CSC2=NS(=O)(=O)c3ccccc32)c1,98.7*,-7.1,12.5,14.2,-1.3,0.4,-49.0,21.3,1.3,2.8
# Continued:
SMILES,ALR inh,LANA-H2B inh,Ecoli rRNA inh,Ecoli rRNA inh OD600,Ecoli rRNA inh RFP,Bfl-1 A1 inh,Beta cell apopt,Beta2AR agonist,Calb FLC,T cruzi repl
O=C(Cn1cnc2ccccc2c1=O)Nc1ccc(-c2nnc3n2CCCCC3)cc1,-38.9,-0.2,/,/,/,-0.2,0.1,-9.0,4.2,-17.2
CCOc1ccc(S(=O)(=O)N(C)c2ccc(OCC(=O)Nc3ccc4[nH]c(=O)[nH]c4c3)cc2)cc1,-6.8,-6.6,-31.6*,-10.1*,10.4*,-0.3,6.6,1.2,-20.7,-13.9
CC(NC(=O)COC(=O)Cn1cnc2ccccc2c1=O)C1CC2CCC1C2 (stereo unspecified),-14.9,5.6,/,/,/,-0.3,1.3,-5.7,-33.3,-9.7
Cn1nc(C(=O)N2CCN(C(c3ccccc3)c3ccccc3)CC2)c2ccccc2c1=O,-9.4,1.8,-6.6,-42.8,11.7,0.4,-0.7,13.3,24.8,-1.6
CCCCc1nnc(NC(=O)CCS(=O)(=O)c2ccc(Cl)cc2)s1,-10.5,4.6,5.0,5.2,-1.4,0.4,-13.4,-1.9,/,/
O=C(COc1ccccc1)NCC(=O)N/N=C/c1ccc(O)cc1O,24.8,3.9,-2.5,-8.5,-7.8,2.1,10.5,3.8,9.3,13.4
COc1ccccc1/C=N/Nc1cc(C)nc(N2CCOCC2)n1,1.5,-1.7,/,/,/,1.0,-8.2,2.0,-4.1,-3.4

# Screening results from PubChem.
